H5N1 CPE = MDCK cell protection from H5N1 avian flu; AID 740; 0.07% of 96,000 active; cytopathic effect, luminescence, 72 h; stronger effect = higher value; no value below 0 was filed and about half of the inactive calls have no number; reference of the scale not given here; inhibition, % at 50 µM; in the data active = inhibition above about 25%
* marks the source's active call; other numbers are inactive results; i = inactive. The list is partial; the hit share may differ from the screen's.

SMILES	H5N1 CPE
C=CCNC(=O)c1ccccc1NC(=O)Nc1ccccc1	i
COc1ccc(Br)cc1-c1noc(-c2ccccc2)n1	i
COc1ccc(CCNc2cc(=O)[nH]c(N)n2)cc1	1.0
CC(C)c1cc(C(F)(F)F)n2nc(C(=O)Nc3ccc4c(c3)OCO4)cc2n1	0.2
O=C1CCC(C(=O)OCC(=O)N2N=C3/C(=C/c4ccccc4)CCCC3C2c2ccccc2)N1 (stereo unspecified)	1.2
O=C1Nc2cc(Cl)ccc2C1(N1CCNCC1)C(F)(F)F (stereo unspecified)	i
COc1ccc(N2CC(C(=O)OCC(=O)NCc3ccccc3)CC2=O)cc1 (stereo unspecified)	i
Cn1nnnc1SCCNCc1cccnc1	0.9
O=C(CSc1n[nH]c(-c2cccs2)n1)NCc1cccs1	1.6
CC1(C)N=C(c2cccs2)C(C)(C)N1O	0.7
CCOc1ccc2[nH]c(=O)c(CN(CCO)C3(c4nnnn4C4CCCCC4)CCCCC3)cc2c1	0.8
CCCOC(=O)c1ccc(NC(=O)c2ccoc2C)cc1	i
CCOc1cc(C)cc2oc(=O)cc(-c3ccccc3)c12	1.3
COc1ccc2oc(-c3ccccc3)c(C(N)=O)c2c1	0.6
N=c1oc2c3c4c(cc2cc1C(=O)Nc1ccccc1)CCCN4CCC3	3.0

Continued; it opens with the five that closed the last part.
SMILES	H5N1 CPE
CCOc1ccc2[nH]c(=O)c(CN(CCO)C3(c4nnnn4C4CCCCC4)CCCCC3)cc2c1	0.8
CCCOC(=O)c1ccc(NC(=O)c2ccoc2C)cc1	i
CCOc1cc(C)cc2oc(=O)cc(-c3ccccc3)c12	1.3
COc1ccc2oc(-c3ccccc3)c(C(N)=O)c2c1	0.6
N=c1oc2c3c4c(cc2cc1C(=O)Nc1ccccc1)CCCN4CCC3	3.0
CC1(C)Cc2c(c(-c3ccccc3Cl)[nH]c(=O)c2C#N)CO1	0.2
CNC(=S)NNC(=O)CCn1nc(C)c(Br)c1C	1.0
CS(=O)(=O)NC1c2cccc3cccc(c23)C1Sc1nncn1/N=C/c1ccco1 (stereo unspecified)	1.4
Cc1ccc(NC(=O)CS(=O)CC(=O)NC2CCN(Cc3ccccc3)CC2)c(C)c1 (stereo unspecified)	i
Cc1nn(Cc2c(Cl)cccc2Cl)c(C)c1NC(=O)c1cnn2c(C(F)F)cc(-c3ccccc3)nc12	0.3
O=C1c2ccccc2C(=O)N1CCc1csc(-c2ccccc2)n1	0.3
O=C(Cn1cc2c(n1)CCCCC2)Nc1ccc(F)cc1F	0.1
Cn1c(-c2ccc3c(c2)OCO3)cnc1NCc1ccc(Cl)cc1	i
CCCC(=O)Nc1ccc(S(=O)(=O)Nc2cc(C)nc(C)n2)cc1	i
CCOC(=O)c1[nH]c(C)c(C(=O)NC2CCCC2)c1C	i
COc1ccc(-n2c(C)cc(C(=O)NC3CCCCC3)c2C)cc1	1.1
O=C(Nc1ccc(S(=O)(=O)N2CCc3ccccc32)cc1)c1ccc2c(c1)OCO2	0.6
CCCOc1ccc(-c2nnn(CC(=O)OCC)n2)cc1	i
CCOC(=O)n1c(=O)oc2ccccc21	i
COc1nc(-c2ccccc2)cc(C(F)(F)F)n1	0.8
O=C(CCS(=O)(=O)c1cccc2nsnc12)NC1CCCCC1	i
Cc1cccc2cc(C(c3nnnn3Cc3ccccc3)N3CCCc4ccccc43)c(=O)[nH]c12 (stereo unspecified)	i
Cc1occc1C(=O)Nc1cc(C(C)(C)C)on1	i
C=C(C)Cn1c(=S)[nH]c2ccccc2c1=O	0.3
Cc1cc(C)n(-c2nc(-n3nc(C)cc3C)c3c4c(sc3n2)COC(C)(C)C4)n1	1.4
O=c1ccc2ccc(OCc3nnc(-c4ccccc4Br)o3)cc2o1	i
CC1(C)Cc2c(C#N)c(OCC(=O)c3ccc(Cl)cc3)nc(-c3ccco3)c2CO1	i
CONC(=O)c1cc(OCC(F)(F)F)ccc1OCC(F)(F)F	i
Cc1ccc(S(=O)(=O)N2CCC(C(=O)Nc3ccc4c(c3)OCO4)CC2)cc1	i
CCOC(=O)C1=C(CNCCc2ccc(Cl)cc2)NC(=O)NC1c1ccc2c(c1)OCO2 (stereo unspecified)	i
O=P1(Nc2cccnc2)COc2ccccc2OC1	0.8
CCOC(=O)C1CCN(c2ncnc3c2oc2ccc(Cl)cc23)CC1	0.3
Cc1ccc(Cl)cc1N1CCN(C(=O)C2CCN(S(=O)(=O)c3cccnc3)CC2)CC1	i
CN1C(=O)CC(C(=O)O)SC1=Nc1cc(Cl)c(O)c(Cl)c1 (stereo unspecified)	i
N#Cc1cccc(NC(=O)CC2CCCCC2)c1	i
Cc1nnsc1C(=O)NC(C)C12CC3CC(CC(C3)C1)C2 (stereo unspecified)	i
CCCN(CCC)CCNc1c(NC2CCN(C(=O)OCC)CC2)c(=O)c1=O	0.8
COc1ccc(/C=C(/C(=O)Nc2ccccc2C(=O)N2CCCC2)c2ccccc2)cc1	i
c1cncc(-c2nnc3n2CCC3)c1	1.1
O=C(Nc1ccccc1)c1ccccc1NC(=O)C1CCCCC1	i
CC1(C)CC(O)C(CCC(O)c2ccccc2)C(C)(C)N1 (stereo unspecified)	0.3
CCOc1ccc(NC(=O)CNC(=O)c2cn(-c3ccccc3OC)c(=O)c3ccccc23)cc1	0.7
COc1ccc(/C=C/C(=O)c2ccc(Cl)s2)cc1O	i
CC1CCN(C(=O)c2cccc(S(=O)(=O)N3CCCCC3)c2)CC1	i
O=C(C1CC1)N1CCc2cc(Br)cc(S(=O)(=O)NCCN3CCOCC3)c21	1.8
CC(C)C(c1nnnn1CCc1ccccc1)N1CCN(C(=O)c2ccco2)CC1 (stereo unspecified)	i
COC(=O)[C@H](C)NC(=O)NCc1ccco1	i
CCCS(=O)(=O)N1CCCC(C(=O)NCCN(C)Cc2ccccc2)C1 (stereo unspecified)	i
O=C(/C=C/c1ccc(OCCCF)cc1)NCc1ccc(Cl)c(Cl)c1	i
O=C(Nc1cccc(Br)c1)c1cc2ccccc2o1	i
COc1ccc(Cl)cc1NC1=NCC(C)S1 (stereo unspecified)	i
COc1ccc2c(c1)OC(O)(C(F)(F)F)CC2=O (stereo unspecified)	i
COc1cccc(N2CCN(c3ncccn3)CC2)c1	i
COc1ccc(NC(=O)N2CCC(C(=O)c3ccc(F)cc3)CC2)cc1	0.8
CCC(C)(C)NC(=O)C(OC(=O)c1cc2sccc2n1C)c1ccc(OC)cc1 (stereo unspecified)	i
COc1ccc(-c2noc(-c3ccccc3C(=O)NCc3ccco3)n2)cc1	i
Nc1[nH]n2c(=O)cc(-c3ccccc3)nc2c1N=Nc1ccccc1	1.2
C=CCn1c(SCC(=O)NCc2ccco2)nc2sc3c(c2c1=O)CCCC3	i
CC1(C)N=C(SCC(=O)Nc2ccc(Cl)cc2)C(c2ccccc2)=N1	i
COc1ccc(OC)c(NC2=NC3(CCCC3)N=C(N)N2)c1	0.3
C=C(C)CSc1nnc2n(Cc3ccccc3)c(=O)c3c4c(sc3n12)CCC4	i
CNP(=S)(NC)OCCOc1ccc(OC)cc1	0.9
Cc1ccc(-n2c(SCC(N)=O)nnc2-c2ccccn2)cc1C	i
NC(=O)N1CCN(C(=O)c2ccco2)CC1	0.9
CCOC(=O)N1CCN(C(=O)N2CCOCC2)CC1	0.4

Carrying on:
SMILES	H5N1 CPE
COc1ccccc1CN(Cc1nc2ccccc2c(=O)[nH]1)C(=O)Nc1ccccc1C	0.5
Cc1noc(C)c1S(=O)(=O)N(CCc1ccccc1)Cc1ccccc1	5.5
c1ccc2c(c1)oc1c(Nc3ccc(CN4CCOCC4)cc3)ncnc12	i
CCn1c(C)nc2cc(S(=O)(=O)C(F)F)ccc21	0.7
CCCC(O)(c1ccc(Cl)cc1)C(CN1CCOCC1)c1ccccc1 (stereo unspecified)	i
CC(=O)c1ccc(NC(=O)CSc2nc3nc(C)cc(C)n3n2)cc1	1.0
COC(=O)[C@H](CCSC)NC(=O)Nc1ccc(OC)cc1	0.2
COc1cccc(-c2cc(C(=O)NC3CCCC3)no2)c1	0.8
Cc1ccc(C(=O)O)cc1S(=O)(=O)NCC1CCCO1 (stereo unspecified)	0.3
COC(=O)c1ccc(NC(=O)C2CCCCC2C(=O)O)cc1 (stereo unspecified)	i
Cc1nn(C)cc1C(=O)Nc1cc(Oc2ccc(Cl)cc2)cc([N+](=O)[O-])c1	i
CC1CCCC(NC(=O)COC(=O)c2ccccc2NC(=O)c2ccco2)C1C (stereo unspecified)	i
COC(=O)c1ccc(CSc2nc3ccccc3c(=O)n2Cc2ccco2)o1	i
O=C(NCc1ccccc1Cl)c1ccc(Cn2cc(C(F)(F)F)ccc2=O)cc1	i
O=C(COC(=O)c1ccc(S(=O)(=O)Nc2ccccc2)cc1)NCc1ccco1	1.6
Cc1ccc(C2C3=C(NCCN=C3c3ccccc3)C(=O)N2c2ccccc2)cc1 (stereo unspecified)	i
Cc1cc(OCCOCCNC(C)C)cc(C)c1Cl	i
CCN(CC)c1ccc(NC(=O)COC(=O)c2cccs2)cc1	1.9
CCOC(=O)c1cnc(SC2CCc3ccccc3C2=O)nc1N (stereo unspecified)	i
O=C(NCc1ccccc1)c1cccc(COc2ccccc2Cl)c1	i
CCCn1c(=O)c(C(=O)NCc2ccc(OC)c(OC)c2)c(O)c2ccccc21	i
CCOC(=O)c1sc2nc3c(cc2c1N)COC(C)(CC)C3 (stereo unspecified)	0.4
O=C(NC1C=CS(=O)(=O)C1)c1sc2ccccc2c1Cl (stereo unspecified)	i
CCC(=O)Oc1ccc(-c2cnc3ccccc3n2)cc1	2.5
CCOc1ccc(OCCOc2cccc(C(F)(F)F)c2)cc1	i
CN1CCN(C(=O)c2ccc(COc3ccc(C(C)(C)C)cc3)o2)CC1	11
Cc1ccn(C(=O)c2cc3cc(Cl)ccc3oc2=O)n1	i
CCOP(=O)(OCC)C(C)(C)NC(=O)C(Cl)(Cl)Cl	i
Cc1cc(C(=O)CSc2nc3ccccc3n2C)c(C)n1C	0.9
CCOC(=O)c1cc2sc(C)cc2n1CC(=O)Nc1ccc2c(c1)OCCO2	i
CCS(=O)(=O)n1nc(-c2ccccc2)nc1SC	i
C=C(C)CNC(=S)N/N=C(\C)c1ccc(-n2ccnc2)cc1	i
Cc1ccc(S(=O)(=O)N(CC(=O)NCCSC2CCCCC2)c2ccccc2F)cc1	0.2
CCCCCSc1nc(N2CCOCC2)c2c(c1C#N)CC(C)(C)OC2	i
Cn1c(C2CC(=O)N(Cc3ccccc3)C2)nc2ccccc21 (stereo unspecified)	1.5
CC(=O)c1cn(CC(=O)Nc2c(C)cccc2C)c2ccccc12	i
Cc1ccc(-n2nnc3c(=O)n(CC(=O)N4CCC(C)CC4)cnc32)cc1	i
COc1ccc(CCN(C(=O)c2cccc(F)c2)C2CC(=O)N(c3ccc(OC)cc3)C2=O)cc1 (stereo unspecified)	1.1
COc1cc(OC)cc(C(=O)N2CCN(Cc3ccccc3C(F)(F)F)CC2)c1	0.3
CCN(CC)S(=O)(=O)c1ccc(NCc2ccccc2)nc1	1.3
Cn1c(SCc2ccc(C(=O)Nc3nccs3)cc2)nnc1-c1ccccc1	i
CC(=O)OCCn1c(Br)nc2c1c(=O)[nH]c(=O)n2C	1.3
CCOC(=O)c1cnc(-n2nc(C)cc2C)nc1Nc1ccc(OC)cc1	0.8
Clc1ccccc1OCc1nc(-c2ccc(Br)o2)no1	i
COc1ccc(O)c(/C=N/NC(=O)CSc2nnc(C)n2-c2ccccc2)c1	i
Cc1cccc(N2CCN(C(=O)CCc3nc4ccccc4[nH]3)CC2C)c1 (stereo unspecified)	2.1
Cc1cccc(NC(=O)c2ccc(-n3ccnc3)nc2)c1	i
Cc1cc(Br)ccc1NC(=O)CCSc1ccccc1	0.6
Cc1cc(=O)oc(C)c1C(=O)OCC(=O)c1ccc(Cl)cc1	i
CN1C(=O)CS(=O)c2ccc(C(=O)NCCC3=CCCCC3)cc21 (stereo unspecified)	0.5
CCn1cnc2c1c(=O)n(CC(=O)Nc1cc(C)on1)c(=O)n2Cc1ccccc1	0.4
Cc1ccc2c(c1)nc(NCCO)n2C	i
COc1ccc(N2C(=O)C3CC(C)=C(C)CC3C2=O)c(OC)c1 (stereo unspecified)	i
COc1ccccc1N1CCN(Cc2ccco2)CC1	i
S=c1[nH]nc(-c2ccncc2)n1CC1CCCO1 (stereo unspecified)	i
CCOc1nnc(C)c2c(C)n(-c3ccc(Cl)cc3)nc12	i
CCNC(=O)N1CCNC(=O)C1CC(=O)Nc1ccc(C(=O)OCC)cc1 (stereo unspecified)	0.3
CCCCOc1ccc(CSc2nncn2N)cc1	i
Cc1[nH]c2ccccc2c1CCC(N)=O	0.3
O=C(Nc1sc2c(c1C(=O)O)CCC2)c1ccco1	i

(continued)
SMILES	H5N1 CPE
COc1cccc(-c2nnc3sc(-c4cccs4)nn23)c1	2.8
Cc1nn(Cc2c(Cl)cccc2Cl)c(C)c1C(=O)NCc1ccc(C)n1C	i
O=C1CC(c2ccc(F)cc2)CC(O)=C1C=NCCN1CCN(C(=O)Nc2ccccc2)CC1 (stereo unspecified)	i
CCOC(=O)/C=C/S(=O)(=O)c1ccc(NC(C)=O)cc1	i

Molecules above containing an aryl thioether with sulfur outside any ring, in the order listed:
SMILES	H5N1 CPE
Cn1nnnc1SCCNCc1cccnc1	0.9
O=C(CSc1n[nH]c(-c2cccs2)n1)NCc1cccs1	1.6
CS(=O)(=O)NC1c2cccc3cccc(c23)C1Sc1nncn1/N=C/c1ccco1 (stereo unspecified)	1.4
C=CCn1c(SCC(=O)NCc2ccco2)nc2sc3c(c2c1=O)CCCC3	i
C=C(C)CSc1nnc2n(Cc3ccccc3)c(=O)c3c4c(sc3n12)CCC4	i
Cc1ccc(-n2c(SCC(N)=O)nnc2-c2ccccn2)cc1C	i
CC(=O)c1ccc(NC(=O)CSc2nc3nc(C)cc(C)n3n2)cc1	1.0
COC(=O)c1ccc(CSc2nc3ccccc3c(=O)n2Cc2ccco2)o1	i
CCOC(=O)c1cnc(SC2CCc3ccccc3C2=O)nc1N (stereo unspecified)	i
Cc1cc(C(=O)CSc2nc3ccccc3n2C)c(C)n1C	0.9
CCS(=O)(=O)n1nc(-c2ccccc2)nc1SC	i
CCCCCSc1nc(N2CCOCC2)c2c(c1C#N)CC(C)(C)OC2	i
Cn1c(SCc2ccc(C(=O)Nc3nccs3)cc2)nnc1-c1ccccc1	i
COc1ccc(O)c(/C=N/NC(=O)CSc2nnc(C)n2-c2ccccc2)c1	i
Cc1cc(Br)ccc1NC(=O)CCSc1ccccc1	0.6
CCCCOc1ccc(CSc2nncn2N)cc1	i
